Assay outcomes (PubChem)
HNF4A DNA FP – change in binding of human HNF4 alpha to DNA. P41235. HNF4a-FITC DNA binding, fluorescence polarization, 1 h. activity change, % at 10 µM. 360,000 tested, 0.3% active; in the data active = activity change above about 30%, passing the limit was not always enough;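 note: controls were the assay level and a saturating level of protein; the project sought stronger binding though the title names inhibitors; some compounds called inactive have numbers as strong as hits; positive values seem to mean higher polarization but the record does not say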
UCH37 inh – human UCH37 deubiquitinating enzyme inhibition; purified proteasome/UCH37, Ub-AMC cleavage fluorescence; inhibition, % (test concentration not listed); 330,000 tested, 0.33% active; AID 588478;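 active = mean of two replicates above 20%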;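 note: 0% = compound-free wells with enzyme and 100% = wells lacking proteasome; stock transfer was 100 nL into about 20 µL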
Target sequence (Q9Y5K5 whole entry, looked up): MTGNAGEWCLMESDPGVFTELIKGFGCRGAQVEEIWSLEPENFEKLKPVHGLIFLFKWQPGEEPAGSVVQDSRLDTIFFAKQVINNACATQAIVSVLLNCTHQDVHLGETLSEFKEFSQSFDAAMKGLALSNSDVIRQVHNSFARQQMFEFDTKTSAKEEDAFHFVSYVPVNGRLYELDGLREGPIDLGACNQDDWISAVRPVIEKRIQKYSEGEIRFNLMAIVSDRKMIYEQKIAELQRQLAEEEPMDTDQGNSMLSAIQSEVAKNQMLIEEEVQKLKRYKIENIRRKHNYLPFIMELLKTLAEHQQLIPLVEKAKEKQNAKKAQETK
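Material: human UCH37 enzyme supplied as purified proteasome complex / Amount: 0.15 nM proteasome as dispensed / Buffer or medium: pH 7.4 Tris-HCl (50 mM) with ovalbumin, ATP-MgCl2, DTT / Times: preincubation 30 min, reaction 25 min, room temperature / Technique: AMC fluorescence from Ub-AMC cleavage, excitation 355 nm, emission 460 nm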
Bfl-1 A1 inh – inhibitors of the anti-apoptotic protein A1, read as caspase activation. MEF A1-2A-BIM cells, Caspase-Glo 3/7 luminescence, 3 h; percent of clofoctol response, vehicle zero. caspase activation, % (test concentration not listed). 330,000 tested, 0.066% active;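 active = over half of replicate activation scores above 10%, or exactly half above 10 with the replicate mean above 10; inconclusive = replicate mean below 10 yet half the replicates above 10; inactive = over half of replicates below 10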;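 note: wells of about 30 µL received 50 nL stock; many hits fall short of the cut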
LANA-H2A inh – blocks KSHV LANA binding to histone H2A/H2B. cell-free LANA-H2A/H2B peptide, fluorescence polarization. inhibition, % (no concentration beside the values). 320,000 tested, 0.6% active; in the data active = inhibition mostly above about 10%, no sharp cut-off; inactive = mostly below about 6.7%;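 note: stock transfer was 7.5 nL into about 10 µL; 0% = median of vehicle wells and 100% = median of positive control wells; one replicate is shown; the record names a cut of 25% in any replicate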
Beta2AR agonist – agonists of human beta-2 adrenergic receptor inducing internalization | P07550 | Am2.2-beta2AR cells, FAP receptor internalization, flow cytometry; reference of the scale not given here | response, % (test concentration not listed) | 340,000 tested, 0.43% active;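 active = response above a set limit, near 3 SD of response in nonfluorescent compounds, cut at about 42% in these data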;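 note: stock transfer was 100 nL into about 11 µL; a reference agonist was the positive control; negative values mostly stem from fluorescent compounds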
Target sequence (P07550 whole entry, looked up): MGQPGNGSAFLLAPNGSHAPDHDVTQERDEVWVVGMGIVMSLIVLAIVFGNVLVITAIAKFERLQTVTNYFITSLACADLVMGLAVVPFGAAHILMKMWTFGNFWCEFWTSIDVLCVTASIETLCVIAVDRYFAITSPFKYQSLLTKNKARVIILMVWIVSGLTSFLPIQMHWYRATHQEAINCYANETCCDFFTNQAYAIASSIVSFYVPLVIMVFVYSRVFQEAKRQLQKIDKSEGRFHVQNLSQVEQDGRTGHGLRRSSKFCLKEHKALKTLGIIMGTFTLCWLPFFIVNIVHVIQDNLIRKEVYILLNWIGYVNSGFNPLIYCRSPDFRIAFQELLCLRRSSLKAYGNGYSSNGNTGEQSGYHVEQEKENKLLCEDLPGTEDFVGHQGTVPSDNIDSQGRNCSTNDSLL
Ecoli growth – blocks Escherichia coli growth. OD600 absorbance (concentration not given with the values). OD600, 23 h; active compounds read low. 330,000 tested, 0.21% active;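 active = OD600 absorbance below the run mean of sample wells minus 3.6 SD, in any replicate, cut at about 0.56 in these data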;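 note: stock transfer was 300 nL into about 60 µL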
Vif TR-FRET – HIV-1 Vif–A3G interaction blockers – biochemical, TR-FRET, GST-Vif 1-94, biotin-A3G peptide, dose response retest, primary screen (AID 1117319). TR-FRET GST-Vif / biotin-A3G peptide binding; higher % means a stronger effect; test concentration not given here; strong numbers were not always called active. one-dose inhibition, %; IC50 in µM for titrated hits. 260,000 tested, 0.57% active;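 active = above the screen mean plus three standard deviations and confirmed in dose response; inconclusive = results disagree or hit not tested in dose response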;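 note: Vif residues 1-94 fused to GST binding biotinylated APOBEC3G peptide 110-148; 0% = full assay without inhibitor and 100% = GST in place of GST-Vif; retest series ran down from 100 µM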
* marks the source's active call; other numbers are inactive results.

Screening Cc1ccc(C)c(/C(O)=C2/C(=O)C(=O)N(CCN3CCOCC3)C2c2ccco2)c1 (stereo not drawn) returned HNF4A DNA FP -9.7, UCH37 inh 12, Bfl-1 A1 inh -1.6, LANA-H2A inh -2.3, Beta2AR agonist -8, Ecoli growth 0.75 and Vif TR-FRET 18µM*.
Screening COc1ccc(/C=C2\CCCC3C2=NN(C(=O)c2scnc2C)C3c2ccc(OC)c(OC)c2)cc1OC (stereo not drawn) returned HNF4A DNA FP 5.6, UCH37 inh -186, Bfl-1 A1 inh 0.6, LANA-H2A inh -1.2, Beta2AR agonist 12, Ecoli growth 0.68 and Vif TR-FRET -3%.
Screening CC1=C(C(=O)OCc2ccccc2)C(c2cccc(Cl)c2Cl)NC(=O)N1CCCCCC(=O)O (stereo not drawn) returned HNF4A DNA FP -0.7, UCH37 inh 2.0, Bfl-1 A1 inh 0.4, LANA-H2A inh 1.4, Beta2AR agonist -2 and Ecoli growth 0.68.
`COc1ccc(S(=O)(=O)N(C)c2ccc(C(=O)Nc3cccnc3)cc2)cc1OC` gave HNF4A DNA FP 0.4, UCH37 inh 2.6, Bfl-1 A1 inh -0.2, LANA-H2A inh 3.5, Beta2AR agonist -9 and Ecoli growth 0.72.
`CCc1ccc(Nc2n[n+](C)c(-c3ccncc3)s2)cc1` gave HNF4A DNA FP 5.2, Bfl-1 A1 inh 0.3, LANA-H2A inh 3.5 and Beta2AR agonist -5.
`CCCCCCn1c(CN2CCCCC2C)nc2c1c(=O)n(C)c(=O)n2C` (stereo not drawn) gave HNF4A DNA FP 5.3, UCH37 inh 3.1, Bfl-1 A1 inh 0.2, LANA-H2A inh 2.5, Beta2AR agonist -14, Ecoli growth 0.68 and Vif TR-FRET 17%.
CCN1C(=O)[C@H]2[C@@H](c3ccc(C)cc3)N3C(=O)N(c4cccc(F)c4)C(=O)[C@@]3(C)[C@H]2C1=O was read as HNF4A DNA FP 0.2, UCH37 inh 4.1, Bfl-1 A1 inh 0.4, LANA-H2A inh 3.5 and Beta2AR agonist -2.
For COc1ccc(CNCCC(c2ccccc2)C2CCOC(C)(C)C2)cc1 (stereo not drawn) the results were HNF4A DNA FP -2.2, UCH37 inh -1.0, Bfl-1 A1 inh 0.2, LANA-H2A inh -0.7, Beta2AR agonist 9 and Ecoli growth 0.67.
For Cc1ccc2c(c1)/C(=N/OC(=O)c1ccc(F)cc1)CCS2 the results were HNF4A DNA FP 3.2, Bfl-1 A1 inh 0.1, LANA-H2A inh -0.1, Beta2AR agonist 11 and Vif TR-FRET 21%.
Screening O=[N+]([O-])c1cccc2ncccc12 returned HNF4A DNA FP -0.2, UCH37 inh 1.2, Bfl-1 A1 inh 1.5, LANA-H2A inh 0.5, Beta2AR agonist 1, Ecoli growth 0.7 and Vif TR-FRET 9%.
`Cc1ccc(S(=O)(=O)N2CCCC2)cc1C(=O)NCC(C)(C)N1CCOCC1` gave HNF4A DNA FP 0.8, UCH37 inh 2.9, Bfl-1 A1 inh 0.4, LANA-H2A inh -1.1, Beta2AR agonist 6, Ecoli growth 0.71 and Vif TR-FRET 5%.
Screening CCCCOc1ccc(Cl)cc1CSc1nncn1N returned HNF4A DNA FP 2.7, UCH37 inh 0.5, Bfl-1 A1 inh -0.9, LANA-H2A inh -1.7, Beta2AR agonist -11, Ecoli growth 0.7 and Vif TR-FRET 4%.
NCCNc1ccc([N+](=O)[O-])c(Sc2nc3ccccc3[nH]2)c1 was read as HNF4A DNA FP 1.1, UCH37 inh 12, Bfl-1 A1 inh 0.8, LANA-H2A inh 0.0, Beta2AR agonist -1, Ecoli growth 0.73 and Vif TR-FRET 2%.
For COc1cccc(CNC(=O)CCC2CCCN(C(=O)c3ccc(OC)c(F)c3)C2)c1 (stereo not drawn) the results were HNF4A DNA FP -3.9, UCH37 inh 0.5, Bfl-1 A1 inh 0.0, LANA-H2A inh -2.8, Beta2AR agonist -1, Ecoli growth 0.69 and Vif TR-FRET -2%.
For CCc1ccc(S(=O)(=O)/N=C2\C=C(Nc3ccc(O)cc3)C(=O)c3ccccc32)cc1 the results were HNF4A DNA FP 1.7, Bfl-1 A1 inh 0.8, LANA-H2A inh 0.7 and Beta2AR agonist 45*.
`CC1CC(=O)Nc2ccccc2N1C(=O)CSc1nnnn1C` (stereo not drawn) gave HNF4A DNA FP -1.2, UCH37 inh 5.4, Bfl-1 A1 inh 1.0, LANA-H2A inh -2.8, Beta2AR agonist -3, Ecoli growth 0.7 and Vif TR-FRET -5%.
Cc1onc(-c2ccccc2)c1C(=O)NC(=S)NNC(=O)c1cc(-c2ccc(F)cc2)n[nH]1 was read as HNF4A DNA FP -1.3, UCH37 inh -0.5, Bfl-1 A1 inh 0.1, LANA-H2A inh -3.9, Beta2AR agonist 6 and Ecoli growth 0.69.
`C/C(=N\O)c1ccc2c3ccccc3n(C)c2c1` gave HNF4A DNA FP -0.6, Bfl-1 A1 inh -1.0, LANA-H2A inh -3.1, Beta2AR agonist -4 and Vif TR-FRET 0%.
Screening Cc1cc(OCCCCn2ccnc2)cc(C)c1Cl returned HNF4A DNA FP 1.1, UCH37 inh 3.1, Bfl-1 A1 inh -0.7, LANA-H2A inh 0.0, Beta2AR agonist -7, Ecoli growth 0.5* and Vif TR-FRET -10%.
CNc1n[nH]c(=S)s1 was read as HNF4A DNA FP 0.7, UCH37 inh 2.4, Bfl-1 A1 inh 0.2, LANA-H2A inh -2.3, Beta2AR agonist -1, Ecoli growth 0.72 and Vif TR-FRET -15%.
O=C(O)c1ccccc1/C=N/Nc1ccc(S(=O)(=O)N2CCOCC2)cc1[N+](=O)[O-] was read as HNF4A DNA FP 0.6, Bfl-1 A1 inh 0.7, LANA-H2A inh 3.6, Beta2AR agonist 4 and Vif TR-FRET inconclusive.
`O=C(NCc1ccccc1)C(c1ccccc1)N(C(=O)c1csnn1)C1CCCC1` (stereo not drawn) gave HNF4A DNA FP -0.1, UCH37 inh -0.5, Bfl-1 A1 inh 0.1, LANA-H2A inh 3.8, Beta2AR agonist 1 and Ecoli growth 0.64.
`CCCN(CC(=O)Nc1cc(Cl)ccc1Cl)C(=O)CN1C(=O)C2CCCCC2C1=O` (stereo not drawn) gave HNF4A DNA FP -1.5, UCH37 inh 3.6, Bfl-1 A1 inh -0.1, LANA-H2A inh -0.6, Beta2AR agonist -3, Ecoli growth 0.72 and Vif TR-FRET 0%.
Screening O=C(/C=C/c1cc([N+](=O)[O-])ccc1OC(F)F)Nc1cccc2ccccc12 returned HNF4A DNA FP 2.8, UCH37 inh 2.3, Bfl-1 A1 inh 0.6, LANA-H2A inh 0.3, Beta2AR agonist -2, Ecoli growth 0.72 and Vif TR-FRET 8%.
`Cc1ccc(NC(=O)COC(=O)Cc2c[nH]c3ccccc23)cc1C` gave HNF4A DNA FP -0.4, UCH37 inh 4.0, Beta2AR agonist 3, Ecoli growth 0.68 and Vif TR-FRET -7%.
`O=C(NCc1nc2ccccc2[nH]1)c1cccs1` gave HNF4A DNA FP -0.2, UCH37 inh 0.9, Bfl-1 A1 inh 0.6, LANA-H2A inh 2.4, Beta2AR agonist -9, Ecoli growth 0.68 and Vif TR-FRET 2%.
Cc1c(Cl)cccc1NC(=O)CC1SC(=NCC2CCCO2)NC1=O (stereo not drawn) was read as HNF4A DNA FP 5.8, UCH37 inh -0.2, Bfl-1 A1 inh 1.1, LANA-H2A inh 5.5, Beta2AR agonist -1 and Ecoli growth 0.72.
For Cc1[nH]n(-c2ccc([N+](=O)[O-])cc2)c(=O)c1C=NCCc1c(C)[nH]c2ccccc12 the results were HNF4A DNA FP -2.9, UCH37 inh 4.8, Bfl-1 A1 inh -2.9, LANA-H2A inh 3.9, Beta2AR agonist 9 and Ecoli growth 0.69.
For Cc1cnc(C(=O)Nc2ccccc2C(=O)N2CCOCC2)cn1 the results were HNF4A DNA FP 1.4, UCH37 inh 2.0, Bfl-1 A1 inh 0.6, LANA-H2A inh 3.4, Beta2AR agonist -12, Ecoli growth 0.68 and Vif TR-FRET 6%.
For CC(C)NS(=O)(=O)c1ccc2c(c1)NCC2 the results were HNF4A DNA FP -1.2, UCH37 inh -2.1, Bfl-1 A1 inh -0.1, LANA-H2A inh 0.0, Beta2AR agonist -120, Ecoli growth 0.69 and Vif TR-FRET -6%.
`CCCCn1c(N)c(N(CCOC)C(=O)CN(C)CC(=O)Nc2ccc(Cl)c(Cl)c2)c(=O)[nH]c1=O` gave HNF4A DNA FP 3.1, UCH37 inh 1.2, Bfl-1 A1 inh -0.4, LANA-H2A inh 0.8, Beta2AR agonist 12 and Ecoli growth 0.71.
`COc1ccc(-c2nnc(SCC(=O)N3CCCC3=O)n2N)cc1OC` gave HNF4A DNA FP -2.2, UCH37 inh -1.8, Bfl-1 A1 inh 1.2, LANA-H2A inh -3.7, Beta2AR agonist -5 and Ecoli growth 0.73.
Cc1ccc(NC(=O)C(C)NC(=O)OCc2ccccc2)cc1C (stereo not drawn) was read as HNF4A DNA FP 1.2, UCH37 inh 2.0, Bfl-1 A1 inh 0.2, LANA-H2A inh 5.3, Beta2AR agonist -7, Ecoli growth 0.7 and Vif TR-FRET 71%.
COc1ccc(CN2C(=O)c3ccccc3C2C(=O)NCC2CCCO2)c(OC)c1 (stereo not drawn) was read as HNF4A DNA FP -2.0, UCH37 inh 1.1, Bfl-1 A1 inh -0.2, LANA-H2A inh 2.5, Beta2AR agonist -5, Ecoli growth 0.69 and Vif TR-FRET -4%.
`CN(C)c1ccc(C(C(=O)NCC2CCCO2)N(Cc2ccco2)C(=O)c2snc(C(N)=O)c2N)cc1` (stereo not drawn) gave HNF4A DNA FP 3.5, Bfl-1 A1 inh -0.5, LANA-H2A inh 3.6, Beta2AR agonist 5 and Vif TR-FRET -3%.
COc1ccc(N2CCN(C(=O)c3oc4ccccc4c3C)CC2)cc1 was read as HNF4A DNA FP 0.2, UCH37 inh 3.6, Bfl-1 A1 inh 0.4, LANA-H2A inh -1.0, Beta2AR agonist 1, Ecoli growth 0.65 and Vif TR-FRET 5%.

Overlap with the part before: 2 entries, followed by the next part.
`CN(C)c1ccc(C(C(=O)NCC2CCCO2)N(Cc2ccco2)C(=O)c2snc(C(N)=O)c2N)cc1` (stereo not drawn) gave HNF4A DNA FP 3.5, Bfl-1 A1 inh -0.5, LANA-H2A inh 3.6, Beta2AR agonist 5 and Vif TR-FRET -3%.
COc1ccc(N2CCN(C(=O)c3oc4ccccc4c3C)CC2)cc1 was read as HNF4A DNA FP 0.2, UCH37 inh 3.6, Bfl-1 A1 inh 0.4, LANA-H2A inh -1.0, Beta2AR agonist 1, Ecoli growth 0.65 and Vif TR-FRET 5%.
For C/C(=N/Nc1ccccc1[N+](=O)[O-])c1ccc(C)c([N+](=O)[O-])c1 the results were HNF4A DNA FP 0.6, Beta2AR agonist -9 and Vif TR-FRET -5%.
For Nc1nc(-c2ccccc2)c(-c2ccccc2)o1 the results were HNF4A DNA FP 0.7, Bfl-1 A1 inh 0.0, LANA-H2A inh 29* and Beta2AR agonist 3.
For CCOC(=O)N1CCN(C(=O)c2ccc3nc(N4CCCCC4)sc3c2)CC1 the results were HNF4A DNA FP 0.3, UCH37 inh 0.5, Bfl-1 A1 inh -0.2, LANA-H2A inh 1.0, Beta2AR agonist 3, Ecoli growth 0.69 and Vif TR-FRET 1%.
O=C(Nc1ccc(Cl)c(C(F)(F)F)c1)[C@@H]1CC=C[C@@H]2CCN(Cc3ccccc3)C(=O)[C@@H]21 was read as HNF4A DNA FP 3.3, UCH37 inh 4.2, Bfl-1 A1 inh 1.2, LANA-H2A inh -0.8 and Beta2AR agonist -9.
Screening COc1ccc(/C=C/C(=O)NC(=S)Nc2ccccc2C(=O)NC2CCCCC2)cc1 returned HNF4A DNA FP 3.0, UCH37 inh 6.6, Bfl-1 A1 inh 0.6, LANA-H2A inh 1.4, Beta2AR agonist -3, Ecoli growth 0.67 and Vif TR-FRET -3%.
